TRPML1 blocker = human mucolipin-1 channel inhibition; Q9GZU1; TRPML1-inducible cells, Ca2+ dye fluorescence, FDSS; hits give low values; inhibition of EC80 agonist-evoked calcium signal; activity change, negative = inhibition, % (concentration not given with the values); actives 0.02% (n = 390,000); AID 624415; in the data active means activity change below about -50%; inconclusive means about -30% to -50%; inactive means above about -30%;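 note: stimulus is agonist 54-4 at its EC80 concentration; % is set by controls: 0 for no effect and ±100 for the full control effect; compound concentration not given in the record; the text of the record puts the active cut at -80%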
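TRPML1-DL cells, Tet-induced overnight (~16 h, 37 °C) at 1,500 cells/well, were loaded with Ca8 no-wash dye plus quencher for 45-90 min at room temperature. Compounds were pinned during FDSS kinetic reading; agonist 54-4 at EC80 (4 uM final) then added.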
TRPML1 ag = activates the human TRPML1 channel | actives 0.12% (n = 410,000) | TRPML1-expressing cells, Ca2+ dye fluorescence, FDSS; host cell line not named in the record; reference of the full effect not given here | activation, % (test concentration not listed); in the data active = activation above about 50%; inconclusive = about 30% to 50%; inactive = below about 30%; note: 0% is about no effect; the text of the record puts the active cut at 80%
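In this qHTS format, compounds were pin-transferred onto Ca8-dye-loaded TRPML1-DL cells induced with Tet overnight, and intracellular Ca2+ fluorescence was recorded kinetically for 110 s after a 10 s baseline. A subsequent 4uM final 54-4 (EC80) addition followed by a second 110 s read served as the antagonist phase.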
PINK1 expr mod = modulators of PINK1 expression | PINK1 immunofluorescence, high-content cytometry, 24 h | Potency, µM (highest dose often 76.6 µM), for inactives: top-dose activation (PINK1 increase), actives largely listed as activators | actives 0.2% (n = 410,000); active = well fitted activation curve with a large enough effect; inconclusive = small, poorly fitted or top-dose-only effect; inactive = flat fitted curve, though single readings scatter; cell line not stated here;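 note: potency is the fitted concentration of half-maximal effect; % of control where 0% means no effect; nearly all actives have a fitted effect of over 65% in size; a mitochondrial uncoupler was the plate control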
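Stable cell line, 250 cells/well, 12 h attachment; compounds pinned at 5 concentrations, 24 h; CCCP control. Fixed with nuclear dye, primary antibodies 12 h at 10 degrees C, secondary plus cell stain; laser-scanning cytometer read.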
CtBP-E1A blk = blocks the CtBP interaction with E1A; activity change, % (test concentration not listed); actives 0.49% (n = 340,000); AlphaScreen GST-E1A/His-CtBP binding, 1536-well; hits give low values; control for the full effect not named in the record; AID 651724; in the data active means activity change below about -65%; inconclusive means about -30% to -65%; inactive means above about -30%; note: % is set by controls: 0 for no effect and ±100 for the full control effect; compound concentration not given in the record
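AlphaScreen with 125 nM GST-E1A and 125 nM His-CtBP (5X stocks) in Tris pH 8.0, 300 mM NaCl, BSA, Tween 20, TCEP. Compounds preincubated 2 h at 37 deg C, then glutathione donor/nickel acceptor beads added for 1 h at 37 deg C in dark.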
Six1-Eya2 blk = blocks human Six1 binding to Eya2 | AlphaScreen GST-Six1/His-Eya2 binding, biochemical; hits give low values; control for the full effect not named in the record | activity change, % (no concentration beside the values) | actives 0.56% (n = 360,000) | AID 651725; in the data active = activity change below about -65%; inconclusive = about -30% to -65%; inactive = above about -30%; note: % is set by controls: 0 for no effect and ±100 for the full control effect; compound concentration not given in the record
Target sequence (O00167 whole entry, looked up): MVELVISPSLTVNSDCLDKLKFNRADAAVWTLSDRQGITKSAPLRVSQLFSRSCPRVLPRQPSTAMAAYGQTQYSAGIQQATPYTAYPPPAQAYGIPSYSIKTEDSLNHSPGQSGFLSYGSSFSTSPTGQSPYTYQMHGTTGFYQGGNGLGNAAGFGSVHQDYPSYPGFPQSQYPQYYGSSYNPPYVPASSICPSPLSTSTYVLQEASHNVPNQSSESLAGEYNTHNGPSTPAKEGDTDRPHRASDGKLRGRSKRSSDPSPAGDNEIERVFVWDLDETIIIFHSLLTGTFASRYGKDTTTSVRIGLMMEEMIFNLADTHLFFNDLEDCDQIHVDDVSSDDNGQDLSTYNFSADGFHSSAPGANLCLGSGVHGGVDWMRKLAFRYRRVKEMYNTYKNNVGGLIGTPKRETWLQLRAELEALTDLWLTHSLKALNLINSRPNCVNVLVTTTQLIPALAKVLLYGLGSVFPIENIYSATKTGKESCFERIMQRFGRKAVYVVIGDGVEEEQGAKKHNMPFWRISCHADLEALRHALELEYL
Target sequence (Q15475 whole entry, looked up): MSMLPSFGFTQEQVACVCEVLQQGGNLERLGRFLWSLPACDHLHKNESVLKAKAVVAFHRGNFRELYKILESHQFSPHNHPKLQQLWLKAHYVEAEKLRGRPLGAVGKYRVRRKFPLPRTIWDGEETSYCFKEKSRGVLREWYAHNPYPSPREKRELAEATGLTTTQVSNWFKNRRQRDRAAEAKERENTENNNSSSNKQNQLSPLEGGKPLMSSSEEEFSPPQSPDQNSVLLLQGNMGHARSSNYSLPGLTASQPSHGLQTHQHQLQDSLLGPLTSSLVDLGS
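AlphaScreen luminescence read after one hour at 37 °C in darkness. Pin-transferred compounds met GST-Six1 and His-Eya2 protein (5X stock 250 nM/500 nM) plus glutathione donor and Ni-chelate acceptor beads (5X, 50 ug/mL).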
D2 ag = agonists of human D2 dopamine receptor (beta-arrestin). P14416. DiscoveRx PathHunter D2 beta-arrestin, luminescence, 90 min; 100% = 57 uM dopamine signal. activation, % (test concentration not listed). actives 0.084% (n = 360,000); in the data active = activation above about 40%; inconclusive = about 15% to 40%; inactive = below about 15%; note: compound concentration not given in the record; the text of the record calls up to 30% inactive
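DiscoveRx PathHunter D2 beta-arrestin cells (2,100/well) attached overnight, then compound-stimulated 90 min at 37 C in HBSS/10 mM HEPES/0.1% Tween-20 buffer; beta-galactosidase complementation read by luminescence after 1 h at ambient temperature. Dopamine 57 uM final (EC100) as control.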
* = called active by the depositor; ? = inconclusive; . = not tested or not shown; & = joins results of further samples; [ ] = remark or other dose. Outcome played no part in choosing rows. Share with any hit: about 1%.

SMILES	TRPML1 blocker	TRPML1 ag	PINK1 expr mod	CtBP-E1A blk	Six1-Eya2 blk	D2 ag
COC(=O)N/N=C/c1cc([N+](=O)[O-])cc(Br)c1O	-7	-0.3	5.3%	9	-8	-9.5
Cn1c(N)c(C(=O)c2ccccc2)c(=O)n(C)c1=O	4	-1.2	-1.3%	1	3	-2.3
CC(C)(C)C(=O)Nc1ccc(C(=O)N/N=C/C2CC3C=CC2C3)cc1 (stereo not drawn)	-2	0.0	0.6%	-21	-13	-1.2
CCOC(=O)C1=C(C)N(c2ccc(OCC)cc2)C(=O)/C1=C\c1ccco1	-5	1.7	6.4%	0	4	-4.4
C(=N\Nc1nc(N2CCOCC2)nc(N2CCOCC2)n1)/c1ccncc1	-15	2.0	-0.3%	1	20	-0.1
Cc1ccc(S(=O)(=O)N(C)CC(=O)Nc2cccnc2)cc1	-2	-0.5	-0.1%	-9	7	0.8
Cc1cccc(C)c1Nc1c(-c2ccccn2)nc2c(C)cccn12	-5	1.7	2.8%	.	.	.
CCn1c(=NC(=O)CSC(C)=O)sc2cc(F)ccc21	-2	-0.5	9.6%	-4	-6	-8.0
CC1CCN(c2ccc(NC(=O)c3cccnc3Cl)cc2)CC1	-5	1.4	1.2%	.	-1	-3.1
CCOc1ccc(-c2cc(C(=O)NCc3ccc(OCC)c(OC)c3)[nH]n2)cc1	9	0.4	-2.0%	.	.	.
Cc1ccc(N(CC(=O)N2CCOCC2)S(C)(=O)=O)cc1C	-13	-0.5	0.0%	5	1	0.3
COc1ccc(OCCn2cnc3ccccc32)cc1	-3	-0.3	0.4%	-2	0	-1.3

Pulled one by one from above, 3 records:
SMILES	TRPML1 blocker	TRPML1 ag	PINK1 expr mod	CtBP-E1A blk	Six1-Eya2 blk	D2 ag
CCn1c(=NC(=O)CSC(C)=O)sc2cc(F)ccc21	-2	-0.5	9.6%	-4	-6	-8.0
CC(C)(C)C(=O)Nc1ccc(C(=O)N/N=C/C2CC3C=CC2C3)cc1 (stereo not drawn)	-2	0.0	0.6%	-21	-13	-1.2
COC(=O)N/N=C/c1cc([N+](=O)[O-])cc(Br)c1O	-7	-0.3	5.3%	9	-8	-9.5

The listing continues:
SMILES	TRPML1 blocker	TRPML1 ag	PINK1 expr mod	CtBP-E1A blk	Six1-Eya2 blk	D2 ag
CCOC(=O)C1(CCSC)NC(c2ccco2)C2C(=O)N(C)C(=O)C21 (stereo not drawn)	-3	-0.2	-1.5%	7	2	-3.0
CC(C)CN(CCCNC(=O)c1cc(-c2ccc(Br)s2)nc2ccccc12)CC(C)C	13	1.6	-0.6%	.	.	.
Nc1nc2sc3c(c2c(=O)s1)CCCC3	-4	1.4	-0.1%[38.3 µM]	-23	-21	0.0
C/C(=N\NC(=O)COc1ccc(C#N)cc1)c1ccc(N2CCOCC2)cc1	13	5.1	-1.9%	-5	4	-0.7
CC(C)C[C@H]1CNC(=S)N1C[C@H]1CCCN1C[C@H](Cc1ccc(O)cc1)N1C[C@H](CC(C)C)N(CCc2ccccc2)C1=S	19	0.4	1.2%	-14	-17	-4.8
CC1CC1C(=O)Nc1nc(-c2ccccn2)cs1 (stereo not drawn)	2	1.3	1.8%	-70*	-82*	-2.6
C#CC1(O)CC(C)N(C)C(C)C1 (stereo not drawn)	11	1.0	-1.1%	-7	6	1.4
COc1cccc(/C=N/NC(=O)c2cnccn2)c1OC	0	0.7	-0.5%	3	-1	-1.5
O=C(Nc1ccc(-c2nnc(-c3ccccc3)o2)cc1)C1CCCO1 (stereo not drawn)	9	2.8	-0.9%[38.3 µM]	-3	-1	-2.9
CC(C)C1C(C#N)=C(N)Oc2n[nH]c(C(C)(C)C)c21 (stereo not drawn)	-5	0.4	-0.3%	-2	-5	3.2
Nc1ccccc1C(=O)N1CCc2ccccc21	14	0.9	-0.3%	4	6	-4.0
Cc1ccc(OCCC(=O)NNC(=O)c2ccccc2F)cc1	20	-0.4	-1.8%	4	1	0.8
N#Cc1cnc(NOCc2ccc(Cl)cc2)nc1	-10	-1.3	-0.6%	6	-9	-1.1
Cc1occc1C(=O)NC(C)CCc1ccccc1 (stereo not drawn)	13	0.3	-2.7%	-4	0	-3.9
O=C(O)c1cc2nc(-c3cccs3)cc(C(F)(F)F)n2n1	-7	0.2	-3.3%	-13	?	-2.2
COc1ccc(NC(=O)c2sc(=O)n(Cc3ccc(SC)cc3)c2C)cc1OC	.	-0.6	0.4%	?	?	5.6
COc1cccc(/C=C2/C(=O)NN(c3ccc(F)cc3)C2=O)c1	-10	0.0	9.4%	-14	-11	-2.0
CSc1nc2c(c(=O)n1-c1ccccc1)SCC2	-8	-0.8	3.1%[38.3 µM]	1	-3	-2.8
O=C(NCCC(=O)N1CCC2(CC1)NCCc1[nH]cnc12)c1cccc(C(F)(F)F)c1	0	0.2	-1.9%	.	-4	1.8
c1ccc(-c2cc(-c3ccc(N4CCOCC4)cc3)nc3ccccc23)cc1	11	-0.4	4.8%	21	23	-5.8
Cc1ccc2[nH]c(=O)c(CC=C(Cl)Cl)c(C)c2c1	-5	0.1	-0.3%	2	7	1.0
CNC(=O)Nc1ccc2nc(C)sc2c1	12	2.5	0.3%	3	5	-3.5
Cc1ccc(NC(=O)C(=O)NNC(=O)c2ccccc2C)cc1Cl	5	2.0	0.3%	5	3	-2.5
Cc1cc(-n2c(C)cc(C(=O)CN3C(=O)NC4(CCCC4)C3=O)c2C)no1	-14	0.3	.	3	-4	1.3
N#Cc1nc(N)nc(N(c2ccccc2)c2ccccc2)n1	15	11&2.2	0.4%&-0.2%	-1	7	-2.1
NS(=O)(=O)c1ccc(CCNC(=O)c2cncc(Br)c2)cc1	1	-0.5	-1.5%	15	-1	-3.0
NC(=O)NC(=O)COC(=O)CCCSc1nc2ccccc2s1	.	.	-0.2%	-2	4	-3.6
COC(=O)[C@H](C)NC(=O)NCc1ccccc1F	-13	-0.1	1.1%	0	12	-5.8
O=c1ccn([C@@H]2O[C@H](CNS(=O)(=O)C3CC3)[C@@H](O)[C@H]2O)c(=O)[nH]1	-1	-0.6	-0.4%	2	3	-0.4
CN=C(NC#N)SCC(=O)c1ccc(Cl)cc1Cl	-10	3.2	-6.1%[38.3 µM]	0	-17	-1.2
Cc1cc(Cl)ccc1OCCCC(=O)N1CCN(C)CC1	7	1.1	0.6%	-2	5	-0.2
COc1ccc(OC)c(CCNC(=O)c2ccccc2NC(=O)C2=C(C)OCCS2)c1	-10	-0.5	-0.9%	-2	-12	2.6
CN(C)S(=O)(=O)c1cc(NC(=O)[C@H](Cc2ccccc2)N2C(=O)c3ccccc3C2=O)ccc1Cl	-1	-0.3	0.4%	-15	-6	1.0
CC(=O)N1CCCc2cc(S(=O)(=O)N3CCC(C(=O)NCc4ccc(F)cc4)CC3)ccc21	-6	-0.1	-0.4%	.	.	.
Cc1ccc(C)c(N(CC(=O)NCCc2ccccc2)C(=O)CCC(=O)Nc2ccccn2)c1	-5	-0.2	-0.5%	-11	-6	-1.3
O=C1COc2ccc(C(=O)COC(=O)c3ccc(Cl)cc3[N+](=O)[O-])cc2N1	10	0.3	27%	8	-19	?
COc1cc(NC(=O)Cn2c([N+](=O)[O-])cnc2C)c(OC)cc1Cl	-3	0.5	0.2%	11	-7	-1.8
COc1ccc(CNC(=O)C2CCN(S(C)(=O)=O)CC2)cc1	36	-0.7	1.1%	5	3	-0.8
C=CCOc1ccc(/C=C/C(=O)OCC(=O)NCC2CCCCC2)cc1	-14	3.9	1.2%	-4	-9	-2.2
O=C1CC(N2CCN(c3ccccc3)CC2)C(=O)N1c1cccc(Cl)c1 (stereo not drawn)	-9	-0.7	-1.4%	.	-3	2.4
COc1ccc(CNC(=O)CN(Cc2ccc(OC)cc2)C(=O)c2csnn2)cc1	16	1.3	3.2%	.	-1	3.8
Cc1cc(NC(=O)CN2CCC(n3nnc4cc(C(F)(F)F)ccc43)CC2)no1	-6	-0.4	-0.7%[38.3 µM]	10	5	-0.3
CCN(CC(=O)NCc1cccs1)c1ccc(S(=O)(=O)N2CCN(C)CC2)cn1	-20	0.6	0.6%	0	-3	-3.2
O=C(Nc1ccccn1)C(=O)N1CCCCC1	-3	-0.8	0.8%	11	5	-3.8
Cc1ccc(Nc2ccc(C(=O)O)cc2[N+](=O)[O-])cc1	-14	-1.3	1.2%	-2	-5	-6.2
CS(=O)(=O)Nc1ccc(C(=O)Nc2ccc3ccccc3c2)cc1	-5	-0.4	4.7%	1	-6	-1.0
O=C(Nc1ccc(Br)cc1C(=O)O)c1ccc2c(c1)C(=O)N(Cc1ccccc1)C2=O	-14	2.2	-0.1%	-2	-2	6.3
Cc1ccc(C)c(NC(=O)C2(C)CCN2C(=O)C(C)C)c1 (stereo not drawn)	.	-0.6	1.6%	0	1	-4.5
COc1cc(OC)c(C(=O)NCc2nc(-c3ccccc3)no2)cc1OC	13	-0.8	1.6%	.	.	.
O=C(OCc1ccccc1)N1CCCC2CC1c1ccccc12 (stereo not drawn)	2	0.3	2.9%	6	13	-8.8
CCC(=O)N1CCc2cc(Br)cc(S(=O)(=O)NCCc3cccc(C)c3)c21	57	3.4	0.5%	.	.	.
O=C(CCN1C(=O)/C(=C/c2ccccc2Cl)SC1=S)NCCCN1CCOCC1	-1	-0.5	5.7%	-6	4	2.1
Cc1ccc(NC(=S)N(CCC(C)C)C(C)c2ccncc2)c(Cl)c1 (stereo not drawn)	-2	0.4	-0.1%	3	1	-0.1
CC(=O)Nc1ccc(S(=O)(=O)N2CCN(C)CC2)cc1	-12	0.1	-8.6%[38.3 µM]	1	11	-1.9
COCCCN(C(=O)c1cc(C)oc1C)c1c(N)n(CC(C)C)c(=O)[nH]c1=O	9	0.7	1.0%	-3	0	0.5
Cn1c(=O)n(C)c2cc(NS(=O)(=O)c3ccc(Cl)cc3)c(NCc3ccccc3)cc21	-9	-1.2	9.1%	.	.	.
COc1cc(NC(=O)c2ccc(COCC(F)(F)F)cc2)cc(OC)c1OC	3	-0.2	-0.9%	-1	-3	-0.4
O=C(Nc1ccccc1C(=O)N1CCCC1)c1ccc(Cl)c([N+](=O)[O-])c1	-17	3.3	0.6%	7	-2	2.4
CC1CC1c1ccc(/C=C(\C#N)C(=O)Nc2cccc(Cl)c2Cl)o1 (stereo not drawn)	50	3.4	3.7%	4	-6	-1.2
CCCCOc1c(C(=O)Nc2ccccc2)nnn1-c1ccccc1	0	-0.6	-0.7%	0	14	3.0
Continued.
SMILES	TRPML1 blocker	TRPML1 ag	PINK1 expr mod	CtBP-E1A blk	Six1-Eya2 blk	D2 ag
O=C(NCc1ccc(Cl)c(Cl)c1)C1CCCC1	3	0.0	0.3%	4	8	-0.9
Cc1ccc(C)c(-n2cc(CNCCCn3cccn3)c(-c3ccccc3)n2)c1	-9	0.4	3.2%	-8	-6	-4.9
COc1ccc2c(c1)-c1nc(NC(=O)c3cccc(Br)c3)sc1CC2	31	1.6	4.1%	.	.	.
COc1ccc(-c2cc3ccccc3oc2=O)cc1NC(=O)c1ccc([N+](=O)[O-])o1	22	-0.5	0.5%	-23	-6	11

Bioassay records as filed in PubChem.
